# Screening results deposited in PubChem BioAssay by several laboratories.
# ugtP null kill – compounds lethal to S. aureus RN4220 ugtP deletion mutant; OD600 growth, 16 h; some inactives read as strong as hits; growth inhibition, % (test concentration not listed); 330,000 compounds, 0.54% hits; AID 1259309;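 active = z-score under -3 and OD600 up to 0.15 on both plates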;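 note: plate controls were untreated wells for no effect and antibiotic for full effect; wells of about 80 µL received 100 nL stock; the first replicate is given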
# PrP 5UTR inh – inhibition of PrP 5' UTR reporter expression; cell-based PrP 5' UTR mRNA reporter, plate reader; inhibition, % (test concentration not listed); 340,000 compounds, 0.35% hits; AID 488862;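 active = every replicate at 50% or more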;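 note: 0 = median of the neutral control wells; tested in H4 reporter cells; numbers are from one replicate; inactives centre near -14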
# BJeLR lethal – kills HRASV12-expressing BJeLR cells; BJeLR (HRASV12) viability, CellTiter-Glo ATP luminescence, 48 h; reference of the scale not given here; inhibition, % (concentration not given with the values); 300,000 compounds, 0.17% hits; AID 1554;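 active = replicate mean above 50%; inconclusive = above 50% but judged a plate artefact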;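 note: 50 nL library stock added to about 25 µL; numbers are from one replicate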
# RN4220 kill – kills Staphylococcus aureus RN4220; S. aureus RN4220 growth, OD600, 16 h; inhibition, % (no concentration beside the values); 330,000 compounds, 0.33% hits;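 active = z-score of -3 or lower and OD600 up to 0.18 on both plates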;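 note: plate controls were untreated cells for no effect and reference antibiotic for full effect; stock transfer was 100 nL into about 80 µL; one replicate is shown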
# Autofluor counter – flagged as autofluorescent in microsphere protease counterscreen; compound autofluorescence counterscreen, microsphere flow cytometry; active compounds read high; fluorescence intensity (no concentration beside the values); 360,000 compounds, 3.1% hits;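 active = at least 3 SD above the mean of all compounds, about 16000 in these data; inconclusive = too few beads counted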;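 note: 100 nL of 1 mM stock went into each well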
# Mtb hypoxia rep – reduces hypoxia-regulated biosensor signal in M. tuberculosis. M. tuberculosis hypoxia-regulated fluorescent reporter, fluorescence. fluorescence inhibition, % (test concentration not listed). 300,000 compounds, 0.1% hits. AID 1159583;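 active = 35 to 45% if threefold the growth effect, above 45% if 1.5-fold the growth effect; inactive = the rest, general growth blockers included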;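 note: wells of about 50 µL received 100 nL stock; 0% = vehicle wells and 100% = reference inhibitor wells; whole bacteria with a GFP reporter of the hypoxia response; strong numbers were not always called active; many hits fall short of the cut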
# Mtb hypoxia rep growth – second read-out of Mtb hypoxia rep, no call of its own (marks repeat the call); growth inhibition, %; measured here: M. tuberculosis growth (absorbance);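 0% = vehicle and 100% = reference antibiotic; read after six days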
# Numbers without * were called inactive; ? = inconclusive; . = no result given.
SMILES,ugtP null kill,PrP 5UTR inh,BJeLR lethal,RN4220 kill,Autofluor counter,Mtb hypoxia rep,Mtb hypoxia rep growth
C#CCOCCOCCOCCNc1nc(N2CCN(C(=O)C(CCC(=O)O)n3cc(C(N)CC(C)C)nn3)CC2)nc(N2CCN(C(=O)C(Cc3ccc(O)cc3)n3cc(C(N)CC(C)C)nn3)CC2)n1 (stereo not given),2,.,.,5.3,.,12,2
CN(C)c1ccc(NS(=O)(=O)c2ccc(Cl)cc2)cc1,-6,-29,-2,4.5,2106,6,5
COc1ccc(C2CC(c3c(-c4ccccc4)c4cc(Cl)ccc4[nH]c3=O)=NN2S(C)(=O)=O)cc1OC (stereo not given),-12,-11,14,-36,2988,21,-3
CC(=O)Nc1ccc(NC(=O)COC(=O)c2cc([N+](=O)[O-])ccc2N2CCOCC2)cc1,2,-12,-12,3.3,5645,3,5
Cc1n[nH]c(=O)nc1NN=Cc1ccc(O)c([N+](=O)[O-])c1,8,.,.,6.4,.,16,22
Cc1cccc(-c2ccc(NC(=O)C3CCN(CC4CC4)CC3)cc2)c1,7,-18,5,-7.3,4465,7,-2
CCN(CC(=O)NCc1cccs1)S(=O)(=O)c1cccc(Br)c1,5,-21,.,5.8,3747,9,16
CC1CC(=O)c2cnc(N3CCOCC3)nc2C1 (stereo not given),-2,-19,-6,1.0,11181,6,0
O=C(Oc1ccc(N(Cc2cccs2)C2=NS(=O)(=O)c3ccccc32)cc1)c1ccco1,-1,-14,8,2.2,4180,.,.
CC12CCC(C(=O)N3CCCc4ccccc43)(CC1=O)C2(C)C (stereo not given),1,-24,4,8.6,9303,14,13
Cc1c(N=Nc2c(O)[nH]c(=O)[nH]c2=O)c(=O)n(-c2ccccc2)n1C,10,-16,0,5.8,4565,24,0
Cc1ccc(NC(=O)C(=O)NCCc2c[nH]c3ccccc23)c(C)c1,0,-13,10,3.1,7052,-5,0
COc1cc([N+](=O)[O-])ccc1NC(=S)Nn1cnnc1,8,-24,-10,-0.4,4058,1,-7
O=C(Nc1ccccc1C(F)(F)F)N1CCCC(O)C1 (stereo not given),-5,-8,12,5.8,2485,1,3
Cc1ccccc1Nc1nnc(SCC(=O)c2c(N)n(C)c(=O)n(C)c2=O)s1,24,-23,-7,7.3,3381,-2,7
O=C(CCNC(=O)c1ccc([N+](=O)[O-])cc1)NCCc1ccccc1,13,-58,-10,2.9,5135,-5,1
CCOCCCN(Cc1ccco1)S(=O)(=O)c1csc(C(N)=O)c1,3,-4,5,0.3,6409,3,1
COc1cccc(C=NNc2nc(N3CCCC3)nc(N3CCCC3)n2)c1O,5,.,.,1.8,.,0,1
COC(=O)C(O)(c1ccc(NC(=O)Oc2ccccc2)cc1)C(F)(F)F (stereo not given),3,-21,-16,6.2,2240,-2,2
Nn1c(SCC(=O)N2CCCC2=O)nnc1-c1cccs1,6,-21,-12,3.2,.,0,-5
CCOC(=O)C1C(=O)NC(N2CCOCC2)=NC1c1ccco1 (stereo not given),3,-3,3,2.0,3097,.,.
O=C(C1=C(O)C(=O)N(CC2CCCO2)C1c1ccccc1F)c1ccco1 (stereo not given),6,-3,6,5.4,5934,-5,-3
O=C(c1ccc(=O)[nH]c1)N1CCN(S(=O)(=O)c2ccc3ccccc3c2)CC1,-2,-18,.,6.7,3982,14,1
COc1cccc2c1cc1c(=O)n(CC(=O)NCc3ccccn3)nc(C)n12,-3,0,6,5.0,5489,0,-1
COC(=O)c1cn(NC(=O)Cc2ccccc2Br)c(=O)c2ccccc12,10,-18,-12,6.7,4107,10,3
CCOC(=O)c1c(C)cc(C)[nH]c1=O,2,1,-5,1.5,3521,5,0
Nc1nonc1-n1nnc(C(=O)NN=Cc2ccc(OCc3ccccc3)cc2)c1COc1ccc(F)cc1,10,.,.,4.3,.,-8,-4
COCCNC(=O)/C(C#N)=C/c1c(N2CCN(c3cccc(Cl)c3)CC2)nc2c(C)cccn2c1=O,-20,-17,6,2.7,3835,4,16
CC1(C)CC(=O)C=C(NCCN2CCN(C(=O)Nc3ccccc3)CC2)C1,-1,-16,6,0.5,.,0,-2
CC1CN(c2nc3ccccn3c(=O)c2/C=C(\C#N)C(N)=O)CC(C)O1 (stereo not given),3,-27,4,1.7,6284,8,14
COc1ccc(S(=O)(=O)n2nc(-c3cc(OC)c(OC)c(OC)c3)cc2N)cc1OC,4,-16,.,3.0,5689,13,8
CCCSCCCNC(=O)c1ccc(C)c(NC(=O)C2=C(C)OCCS2)c1,-8,3,4,3.5,3818,8,-5
O=C(NCCNc1ccc([N+](=O)[O-])cc1)c1ccccc1Br,-4,-3,-6,3.3,8509,10,7
CCOC(=O)Cc1csc(NC(=O)c2sc3nc4c(C)cc(C)cc4cc3c2N)n1,-20,-39,-5,19,11500,-12,6
COCCNC(=O)C(OC(=O)c1cc2oc(C)cc2n1C)C(C)C (stereo not given),-3,-14,3,0.1,4266,1,5
NCC(O)c1ccc(O)cc1 (stereo not given),5,-13,0,7.3,6703,7,3
Cc1ccc(NS(=O)(=O)c2cn(C)c(=O)n(C)c2=O)c(C)c1,-3,-15,-18,-3.9,6119,4,12
O=C(Nc1ccc2c(c1)OCCO2)C1CCN(S(=O)(=O)c2ccc3c(c2)OCCO3)CC1,8,-9,-5,3.0,21484*,1,0
O=C(Cc1ncon1)Nc1ccc(F)c(F)c1F,-3,-24,-6,-0.6,4391,1,21
Cn1cc(S(=O)(=O)NCCc2ccccc2)c(=O)n(C)c1=O,8,.,5,3.5,4812,-8,-4
CC1(C)CC(=O)C=C(c2ccc(F)nc2)C1,0,1,.,6.3,2960,8,1
O=C(COC(=O)c1nc(Cl)c(Cl)c(Cl)c1Cl)NCc1ccccc1,7,3,.,3.2,2913,3,-1
O=C(NCc1cccs1)c1nn2cccnc2c1Cl,2,-34,3,6.4,2927,6,5
Cn1c(O)c(C(c2ccncc2)c2c(O)n(C)c(=S)n(C)c2=O)c(=O)n(C)c1=S,5,-16,2,3.5,2385,.,.
CC(NC(=O)c1cc2cc(F)ccc2[nH]1)c1ccccc1 (stereo not given),7,-16,-26,2.9,3192,7,-1
COc1ccc(NC(=O)CN2CCCCC2)c([N+](=O)[O-])c1,2,-21,2,1.5,9894,-1,4
Cc1cccc(NC(=S)NN=Cc2cccc(O)c2)c1C,4,.,.,-3.5,.,2,2
O=C(Cn1c(=O)c2sccc2n(Cc2ccc([N+](=O)[O-])cc2)c1=O)NCCc1ccccc1,-1,-24,6,0.8,6642,4,-1
CCNC(=O)OCC12CC3CC(CC(C3)C1)C2,-3,-18,-3,5.5,2027,.,.
CC[C@@H](C)[C@H](NC(=O)Cc1c(C)c2c(cc(C)c3c(C)coc32)oc1=O)C(=O)O,1,-10,0,1.5,2903,1,-3
# Additional structures follow:
SMILES,ugtP null kill,PrP 5UTR inh,BJeLR lethal,RN4220 kill,Autofluor counter,Mtb hypoxia rep,Mtb hypoxia rep growth
COC(=O)C1=C(C)N(c2ccc(OC)c(OC)c2)C(=O)C1,2,3,4,3.6,5700,4,14
CCc1sc2nc(SCC(=O)Nc3cc(C)on3)n(-c3cccc(OC)c3)c(=O)c2c1C,-6,-23,-2,5.1,2864,17,4
O=C(CSc1nc2c(cnn2-c2ccc(F)cc2)c(=O)[nH]1)N1CCCc2ccccc21,-17,-3,6,27,4054,10,5
COc1cc(/C=C/c2onc(C)c2[N+](=O)[O-])cc(OC)c1OC,4,-17,-3,2.6,6250,18,5
Cc1ccc(S(=O)(=O)N2CCn3cccc3C2C)cc1 (stereo not given),12,-14,.,10,5139,15,0
CCCCN(C(=O)CN1C(=O)C2CCCCC2C1=O)c1c(N)n(CCCC)c(=O)[nH]c1=O (stereo not given),2,-18,4,-1.4,4018,5,4
CCOC(=O)C1(Cc2cccc(OC)c2)CCCN(C(=O)c2cc(C)oc2C)C1 (stereo not given),1,-24,9,4.3,5221,12,4
N#C/C(=N\Nc1cccc(Cl)c1)C(=O)c1ccccc1,.,-5,2,.,3289,.,.
Fc1ccccc1/C=N/Nc1nc(N2CCCCC2)nc(N2CCCCC2)n1,.,27,2,.,4327,.,.
CC1(C)CN2C(c3ccc(Cl)cc3)N2C1 (stereo not given),2,-16,-2,4.3,3193,16,11
CC(C)CN(CC(C)C)C(=O)CN1C(=O)NC2(CCCc3ccccc32)C1=O (stereo not given),8,-10,2,-0.4,3146,-4,-1
CC(C)c1ccc(NC(=O)CCNC(=O)N2CC(=O)Nc3ccccc32)cc1,-3,-5,3,-0.9,5474,-2,9
COc1cc2ccccc2cc1C(=O)N1CC(C)CC(C)C1 (stereo not given),13,6,-7,2.7,?,15,5
COc1cccc(C2CCN(CC(=O)Nc3cc(Cl)ccc3OC)CC2O)c1 (stereo not given),3,-1,-2,3.1,3962,15,3
CN(C(=O)COC(=O)COc1ccc2c(c1)CCC2)c1c(N)n(Cc2ccccc2)c(=O)[nH]c1=O,-1,1,-4,0.5,5057,5,5
CCCc1nc2oc3c(NCc4ccccn4)ncnc3c2c2c1COC(C)(C)C2,1,-23,4,-2.1,3739,3,3
COc1cc(CO)cc(Br)c1OCC(=O)O,-5,-2,2,0.8,5995,.,.
CC(Sc1ccccc1)C(=O)N1CCN(S(=O)(=O)c2ccccc2F)CC1 (stereo not given),2,-10,-4,1.9,5368,-1,2
O=C(COC(=O)c1ccccc1O)NCC1COc2ccccc2O1 (stereo not given),3,-16,.,-1.4,.,14,3
Cc1cc(C)cc(C(=O)N2CCN=C2SCc2ccc([N+](=O)[O-])cc2)c1,14,2,-3,1.1,1995,8,8
CCOc1ccc(/C=N/NC(=O)c2ccoc2C)cc1OC,.,-45,1,.,5612,.,.
CC(=O)Nc1ccc(S(=O)(=O)Nc2ccccc2C(=O)N2CCCCCC2)cc1,6,-4,-8,6.2,4064,-9,-2
CCc1ccc(NC(=O)NCC2CCN(c3ccc(OC)cc3)C2)cc1 (stereo not given),3,-16,14,-0.4,6363,3,-2
CC(=O)Nc1ccccc1-c1ccc(C)o1,-9,-71,-3,-8.4,3143,5,10
OC(CNCc1ccc(F)cc1)(c1ccccc1)c1ccc(F)cc1 (stereo not given),-10,-18,1,0.5,9674,11,3
Cc1ccccc1/C=C\c1nc(O)c([N+](=O)[O-])c(=O)[nH]1,5,-18,7,4.1,3788,6,5
COC(=O)CCCNC(=O)CCc1nnc(-c2ccc(-c3ccccc3)cc2)o1,.,30,-8,.,3595,.,.
Cc1cccc(N/C=C/C(=O)c2ccc(Cl)cc2)c1,3,-69,-4,2.8,3661,-3,2
Cc1c(C(=O)N(C)C)sc(NC(=O)c2cc([N+](=O)[O-])cc([N+](=O)[O-])c2)c1C#N,-7,-19,-6,-6.9,3855,.,.
CCOc1ccc(S(=O)(=O)NC(C)C(=O)NCc2ccncc2)cc1 (stereo not given),10,-11,-7,-0.5,3111,6,5
COc1ccc(-c2nnc(SCC(=O)c3ccc4c(c3)OCCO4)o2)cc1,-16,.,-4,7.8,.,-7,5
Cc1ccccc1-c1nnn(CC(=O)NC(=O)NC2CCCC2)n1,11,-11,.,-3.7,8366,0,6
Cc1ccccc1-n1c(SCC(=O)NCc2cccs2)nnc1-c1ccncc1,1,-15,4,-1.3,4251,.,.
CCOC(=O)NC(=S)Nc1cccc(NC(=S)NC(=O)OCC)c1,13,-21,1,6.0,4580,5,6
COc1ccc(Nc2cc(C)c3c(O)cccc3n2)cc1,8,-38,5,8.9,4155,-1,6
